Screens from PubChem BioAssay.
Yeast UUG start: modulators of yeast start codon fidelity, primary screen, whole organism, S. cerevisiae, single point, plate reader; S. cerevisiae UUG-firefly luciferase reporter, luminescence/redox ratio; activity score, % at 18.7 µM; actives 0.13% (n = 350,000);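 active = replicate mean at a twofold rise or more, about +100% in these data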;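 also: firefly luciferase made from a UUG start codon reports start codon fidelity; reporter light over untreated wells divided by growth signal over untreated wells; some hits fall short of that in this replicate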
eIF4H inh: human eIF4H binding inhibitors, primary screen, translation initiation inhibitor project, biochemical, uHTS, fluorescence polarization; eIF4H fluorescence polarization binding assay; AID 2012, 2009; actives 0.94% (n = 290,000); inhibition, % at 35 µM;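 active = 50% or more with normal probe brightness, or confirmed in later tests; about a fifth of its hits are not listed in these tables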;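 also: calls also rest on retests at 20 µM and on dose response follow-up; 0% = protein and probe with vehicle and 100% = probe without protein; strong numbers were not always called active; many hits fall short of the cut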
Env fusion inh: inhibitors of HIV-1 Env-driven cell-cell fusion, primary screen, HeLa-JRFL effector, CEM21 target cells, luciferase. inhibition, % at 12.3 µM. actives 1.1% (n = 360,000);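 active = mean replicate inhibition score of at least 50 and every replicate individually at or above 50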;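 also: 0% = plate neutral controls and 100% = maraviroc near 300 nM; one replicate is shown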
PABP FP inh: PABP poly(A) RNA binding inhibitors, primary screen, biochemical, fluorescence polarization, uHTS. inhibition, % at 35 µM. Polyadenylate-binding protein 1 (Homo sapiens), P11940. actives 1% (n = 290,000);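 active = 50% or more with normal probe brightness, or confirmed in later tests; about a fifth of its hits are not listed in these tables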;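 also: calls also rest on retests at 20 µM and on dose response follow-up; controls were probe without protein and protein plus probe with vehicle; some compounds called inactive have numbers as strong as hits; many hits fall short of the cut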
Target sequence (P11940 whole entry, looked up): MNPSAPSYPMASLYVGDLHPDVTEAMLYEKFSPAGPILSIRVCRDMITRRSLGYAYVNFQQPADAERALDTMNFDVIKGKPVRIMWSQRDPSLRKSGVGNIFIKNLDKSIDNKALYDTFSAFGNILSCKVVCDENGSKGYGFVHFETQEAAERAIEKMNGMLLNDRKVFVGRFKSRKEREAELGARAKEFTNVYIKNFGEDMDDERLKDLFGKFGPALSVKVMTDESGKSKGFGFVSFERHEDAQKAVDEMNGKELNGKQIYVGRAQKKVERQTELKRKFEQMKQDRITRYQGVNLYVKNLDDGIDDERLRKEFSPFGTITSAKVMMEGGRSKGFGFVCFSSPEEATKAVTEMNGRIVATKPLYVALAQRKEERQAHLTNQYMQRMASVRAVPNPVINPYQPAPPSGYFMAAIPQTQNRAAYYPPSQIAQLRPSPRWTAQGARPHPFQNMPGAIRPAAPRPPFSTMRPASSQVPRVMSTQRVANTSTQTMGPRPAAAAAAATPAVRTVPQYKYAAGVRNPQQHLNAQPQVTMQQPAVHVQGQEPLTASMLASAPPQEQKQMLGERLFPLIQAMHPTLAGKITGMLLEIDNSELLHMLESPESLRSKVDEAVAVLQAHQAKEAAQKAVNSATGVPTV
MT1-MMP act inh: blockers of MT1-MMP proenzyme processing, primary screen, HT1080 RFP-PRO-GFP cells, GFP/RFP fluorescence | Matrix metalloproteinase-14 (Homo sapiens), P50281 | GFP/RFP ratio fluorescence, overnight; percent of plate control window, DMSO zero | GFP/RFP ratio change, % at 20 µM | actives 0.061% (n = 360,000);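 active = GFP/RFP ratio change of at least 30% with cell ATP level not reduced by more than half and red fluorescence within 50% of control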; also: strong numbers were not always called active
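Material – HT1080 RFP-PRO-GFP cells · Control set – DMSO wells and RFP-L50D-GFP cells · Incubation – overnight cell settling, then overnight compound exposure, 37 °C, 5% CO2 · Compound dosing – single-point 20 µM compound, 1% DMSO · Read-out – GFP/RFP fluorescence ratio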
CSC inhib: cancer stem cell viability inhibitors, primary screen, luminescence; cancer stem cell-like cells viability; inhibition, % at 7.5 µM; actives 1.1% (n = 300,000);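 active = mean at 75% or more and at least half the replicates too; tested in HMLE shEcad cells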;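 also: 0% = median of negative and 100% = median of positive control wells; the first replicate is given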
Rce1 inh: yeast Rce1p protease inhibitors, primary screen, biochemical, fluorescence, cell-free homogeneous; CAAX prenyl protease 2 (Saccharomyces cerevisiae (strain ATCC 204508 / S288c)), Q03530; yeast membranes, quenched prenylated peptide cleavage fluorescence; calls only; actives 0.27% (n = 290,000); AID 2563, 2010;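 active = fall in fluorescence gain of 50% or more versus controls, with final raw signal at or below 3038400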;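 also: plate controls were neutral control wells for no effect and wells lacking membranes for full effect; tested at 10 µM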
MT1-MMP act inh RFP: further read-out of MT1-MMP act inh, marked with its call; RFP signal change, %; measured here: RFP expression control read;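 0 = vehicle wells; hits needed this value within 50% of zero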
* marks the source's active call; other numbers are inactive results; i = inactive; . = no result given. Compounds were not picked by outcome; any-hit rate near 2.9%.

SMILES | Yeast UUG start | eIF4H inh | Env fusion inh | PABP FP inh | MT1-MMP act inh | MT1-MMP act inh RFP | CSC inhib | Rce1 inh
Cn1cnnc1SCC(=O)NNC(=O)COc1ccc(Cl)cc1 | . | 4 | -10 | 1 | 1 | 1 | -7 | i
Cc1sc(NC(=O)CSc2nnc(COc3ccc(Cl)cc3)n2C)c(C#N)c1C | . | -12 | -90 | -1 | 2 | -3 | 6 | i
CCOC(=O)c1c(-n2cccc2)sc2c1CCCC2=O | 4 | -8 | 18 | -12 | 0 | 1 | 5 | i
O=C(Nc1ccc(O)c(C(=O)O)c1)c1ccc2c(c1)C(=O)N(CC1CCCO1)C2=O (stereo unspecified) | 12 | -1 | . | 8 | 5 | 2 | . | .
CCC/C(=C1/c2ccccc2C(=O)N1c1ccccc1)c1cnc(OC)nc1 | -15 | . | -3 | . | -1 | -10 | 28 | .
Cc1ccc(CNC(=O)Cn2nnc(C(=O)Nc3cc(C)ccc3C)c2N)cc1 | 7 | -6 | 1 | -14 | 2 | 0 | 6 | i
CCOC(=O)c1cccc(-n2c(-c3ccc(OC)cc3)nc3nc4ccccc4nc32)c1 | . | 6 | . | 5 | . | . | . | i
Cc1cccc(NC(=O)c2cccc(C(=O)Nc3cccc(C)c3C)n2)c1C | -17 | -2 | -24 | 6 | 1 | 2 | -8 | i
CCOC(=O)c1nnn(-c2nonc2N)c1CN1CCCCCC1 | -16 | 6 | -24 | 8 | 4 | 5 | -12 | i
Cc1cc(C)c(C#N)c(SCc2[nH]nc3c2C(c2ccc(F)cc2)C(C#N)=C(N)O3)n1 (stereo unspecified) | -5 | 9 | -13 | 8 | 2 | 1 | 6 | i
CCC(=O)c1ccc(N2CCN(C(=O)c3cccs3)CC2)c(F)c1 | -2 | -12 | -5 | -7 | 1 | -4 | -12 | i
Cc1ccc(-n2ncc3c(=O)n(CC#N)cnc32)cc1C | -8 | 4 | . | -1 | . | . | -8 | i
Cc1ccc(/C=N/NC(=O)c2ccc(-n3cccc3)cc2)o1 | -9 | 15 | -17 | -6 | 2 | 1 | -14 | i
O/N=C/c1ccc2cccc(OCc3ccccc3)c2n1 | -23 | 5 | 22 | -8 | 1 | -5 | 1 | i
O=C(NCC1CCCCC1)c1ccc(Cl)nc1 | -12 | 5 | -1 | 6 | -6 | -2 | 1 | i
COC(=O)c1ccccc1NC(=O)Cn1c(=O)oc2ccc(Cl)cc21 | . | 4 | -18 | -6 | 3 | 1 | -7 | i
COc1ccc(NS(=O)(=O)c2cn(C)cn2)c(OC)c1 | -13 | 2 | -1 | -10 | -1 | 2 | . | i
O=c1c2ccccc2n2c(-c3cccc(F)c3)nnc2n1Cc1ccccc1 | . | 8 | 11 | 1 | 7 | -3 | -2 | i
CCC(C)[C@H](NS(=O)(=O)c1ccc(C)cc1)C(=O)N1CCC(C(=O)N[C@@H](Cc2ccccc2)C(=O)O)CC1 (stereo partly specified) | -24 | 4 | 1 | -4 | -1 | 6 | -7 | i
COc1ccccc1NC(=O)Oc1ccc(NC(=O)c2ccco2)cc1 | -2 | 5 | -7 | 2 | 4 | 0 | -3 | i
CCOC(=O)[C@@H]1[C@H]2COc3ccc(Br)cc3[C@H]2N2C(=O)N(c3ccc(Cl)cc3)C(=O)[C@]12C | -1 | . | -45 | . | 0 | -2 | 7 | .
CCOc1ccccc1C1NC(=O)NC(C)=C1C(=O)OC1CCCC1C (stereo unspecified) | -18 | 3 | . | -5 | -1 | -3 | -5 | i
COc1ccc(NC(=O)c2ccco2)cc1NC(=O)c1cc2ccccc2o1 | -7 | -3 | 8 | -3 | 7 | 1 | -1 | i
CCN(CCCNC(=O)Cn1cc2c(n1)CCCC2)c1cccc(C)c1 | -13 | 1 | 6 | 2 | 9 | -3 | -1 | i
CS(=O)(=O)N1CCC(C(=O)Nc2ccc(F)cc2)CC1 | -8 | -7 | -93 | 12 | 2 | 1 | -15 | i

3 entries from above, sorted by heavy-atom count, ascending.
SMILES | Yeast UUG start | eIF4H inh | Env fusion inh | PABP FP inh | MT1-MMP act inh | MT1-MMP act inh RFP | CSC inhib | Rce1 inh
CCC(=O)c1ccc(N2CCN(C(=O)c3cccs3)CC2)c(F)c1 | -2 | -12 | -5 | -7 | 1 | -4 | -12 | i
COc1ccc(NC(=O)c2ccco2)cc1NC(=O)c1cc2ccccc2o1 | -7 | -3 | 8 | -3 | 7 | 1 | -1 | i
CCOC(=O)c1cccc(-n2c(-c3ccc(OC)cc3)nc3nc4ccccc4nc32)c1 | . | 6 | . | 5 | . | . | . | i

Other entries:
SMILES | Yeast UUG start | eIF4H inh | Env fusion inh | PABP FP inh | MT1-MMP act inh | MT1-MMP act inh RFP | CSC inhib | Rce1 inh
Cc1cc(C)nc(Nc2nc(C)c3cc4c(cc3n2)OCO4)n1 | . | 6 | -24 | -1 | -3 | 0 | -3 | i
c1ccc(-n2nc3c(ccc4cnnc43)[nH]2)cc1 | -6 | 7 | . | -7 | 1 | -4 | -7 | i
O=C(O)C1=C(C(=O)N2CCN(C(=O)c3ccco3)CC2)CCCC1 | -10 | -8 | -12 | 2 | 2 | 9 | 1 | .
COc1ccccc1-c1oc2ccccc2c1C#CC1(N)CCCCC1 | 0 | . | 30 | . | 0 | -2 | 130* | .
O=c1[nH]c(C2CCN(S(=O)(=O)c3cccc(Cl)c3)CC2)nc2c1nnn2Cc1ccccc1 | 9 | -10 | 17 | 0 | -2 | -6 | . | i
Cc1cc(OCCOCCN(C)CCO)cc(C)c1Cl | . | -2 | . | -4 | 4 | 2 | -3 | i
CCOC(=O)c1cnc2nc(C)[nH]n2c1=O | -17 | 5 | . | 6 | 0 | 2 | -10 | i
O=C1C(=Cc2ccco2)C(=O)c2ccccc21 | . | 38 | . | -6 | 10 | 11 | 15 | i
CC(=O)c1ccc(OCc2cc(C(=O)NC(C)CCn3cccn3)no2)cc1 (stereo unspecified) | -5 | -9 | 6 | -3 | -1 | 0 | 19 | i
COc1ccc(N(CC(=O)N2CCN(Cc3ccc4c(c3)OCO4)CC2)S(C)(=O)=O)cc1OC | -8 | 5 | . | -14 | 3 | 1 | -1 | i
CCn1c(SCc2ccccc2)nnc1C1CCN(S(=O)(=O)c2ccc(OC)cc2)CC1 | 13 | -2 | 28 | 12 | 6 | -7 | 16 | i
CCn1nnnc1SCC(=O)NCc1cccs1 | -11 | 6 | . | 4 | 8 | 4 | 2 | i
COc1ccccc1-c1cc2nc(-c3ccccc3)cc(N3CCN(C(=O)c4ccco4)CC3)n2n1 | -11 | . | -8 | . | -4 | -33 | . | .
CCOC(=O)c1ccc(NC(=O)N2CCc3ccccc32)cc1 | 4 | -5 | -270 | -6 | 10 | 0 | 1 | i
CCS(=O)(=O)c1ncc(Cl)c(C(=O)Nc2ccc(S(=O)(=O)N3CCC(C)CC3)cc2)n1 | -1 | -7 | 65* | 12 | -4 | -7 | 118* | i
CCCn1c(N)c(N(CCOC)C(=O)CSCC(=O)Nc2ccc(OC)cc2)c(=O)[nH]c1=O | -12 | . | 15 | . | -2 | 5 | -16 | i
O=C(NCCCNC(=O)c1ccccn1)c1cccc(F)c1 | -14 | 8 | 25 | -4 | -7 | -2 | . | i
CC(C)Oc1ccc(C(CC(=O)N(C)CCC#N)c2ccc(F)cc2)cc1 (stereo unspecified) | 2 | 0 | -2 | 1 | -4 | -3 | -6 | i
O=C(Nc1ccc(C(=O)O)cc1)/C(=C\c1ccc([N+](=O)[O-])cc1)NC(=O)c1ccc(Br)cc1 | . | 0 | -5 | 34 | 1 | -1 | 2 | i
Cn1c(=O)n(C)c2cc(CNC(=O)[C@H]3O[C@@H](n4ccc(=O)[nH]c4=O)[C@H](O)[C@@H]3O)ccc21 | -10 | . | 11 | . | -1 | 8 | . | .
Cc1ccc(S(=O)(=O)Nc2c(C)nn(C)c2C)c(C)c1 | . | . | -4 | . | 3 | -3 | -15 | i
CN(CC(=O)NCCc1ccccn1)S(=O)(=O)c1ccc(Cl)cc1 | -19 | 7 | 3 | 4 | 3 | 4 | 23 | i
O=C1NCC2=C1C(c1ccccc1)Nc1ccccc1N2 (stereo unspecified) | 28 | 14 | 2 | 18 | -7 | 4 | . | i
O=C(Nc1ncc(Cc2ccccc2Cl)s1)c1ccc([N+](=O)[O-])cc1 | -14 | -7 | -1 | -3 | 1 | -15 | 34 | i
COc1ccc(N2CCN(C(=O)COC(=O)c3cnccn3)CC2)cc1 | 0 | . | -2 | . | 0 | 0 | . | i
Carrying on.
SMILES | Yeast UUG start | eIF4H inh | Env fusion inh | PABP FP inh | MT1-MMP act inh | MT1-MMP act inh RFP | CSC inhib | Rce1 inh
CCCNC(=O)C1(C)CCCN(C(=O)c2cc(F)cc(F)c2)C1 (stereo unspecified) | -18 | . | 10 | . | 0 | 0 | . | .
COCCn1nnnc1C(c1ccc(OC)cc1)N1CCC(C)CC1 (stereo unspecified) | -11 | -2 | . | -6 | -2 | 8 | -2 | i
Cc1csc(SCC(=O)NCCc2ccc(Cl)cc2)n1 | . | -2 | -5 | -7 | 2 | 4 | -5 | i
O=C(NN1C(=O)C2C3C=CC(C4CC34)C2C1=O)c1cccc(Cl)c1 (stereo unspecified) | 6 | -2 | 11 | -5 | 2 | 5 | -7 | i
O=C(Nn1c(C2CCCCC2)nc2ccccc2c1=O)c1ccc([N+](=O)[O-])cc1Cl | . | -6 | -20 | -6 | 2 | -7 | 1 | i
CC(C)CCNc1nc(N)c([N+](=O)[O-])c(NCCO)n1 | -10 | 2 | -25 | -5 | 5 | 3 | -2 | i
O=C(CCOc1ccccc1)Nc1ccc([N+](=O)[O-])cc1 | 2 | 13 | -20 | -1 | 7 | 7 | -4 | i
COc1cc(/C=N/NC(=O)Cc2csc(N3CCOCC3)n2)cc(OC)c1O | . | -4 | 10 | -3 | 1 | 6 | 0 | i
CCNc1nc(NC(C)C)nc(SCCOC(=O)c2ccccc2)n1 | 3 | 9 | 15 | -7 | -1 | -4 | -4 | i
O=C(CCCN1CCOC(c2ccccc2)C1)c1ccc(F)cc1 (stereo unspecified) | -7 | -12 | 4 | -5 | 0 | 0 | 4 | i
CCc1nnc(NC(=O)CCC(=O)N2CCN(S(=O)(=O)c3cc(Cl)ccc3OC)CC2)s1 | 0 | . | 7 | . | 2 | 2 | 8 | i
CCCS(=O)(=O)N1CCN(Cc2c[nH]c3ccccc23)CC1 | . | 12 | 21 | -1 | 3 | 6 | -14 | i
Cc1cc(C)c(C(=O)OCC(=O)Nc2cccc(S(=O)(=O)N3CCCCC3)c2)c(C)c1 | 2 | . | 15 | . | 0 | -9 | 25 | i
O=C(NCc1cccc(Cl)c1)c1cccnc1 | -18 | 2 | . | 7 | -3 | -3 | -13 | i
O=C(C1=C[C@H](c2coc3ccccc3c2=O)C[C@H](OCc2ccc(CO)cc2)O1)N1CCN(Cc2ccc3c(c2)OCO3)CC1 | -5 | -1 | 46 | -15 | -4 | -2 | 14 | i
COCC(C)NCC(=O)NC(C)CCc1ccccc1 (stereo unspecified) | . | -4 | . | -8 | -1 | 1 | -4 | i
CC(C)n1nnnc1SCC(=O)Nc1cccc(F)c1 | 10 | -6 | 8 | 0 | 3 | -1 | . | i
O=S(=O)(Nc1ccc(-c2cn3ccsc3n2)cc1)c1ccc2c(c1)OCCO2 | -22 | -7 | -39 | -3 | 2 | -5 | -2 | i
CC(C)CC(=O)NC(Nc1ccc([N+](=O)[O-])cc1)C(Cl)(Cl)Cl (stereo unspecified) | . | 6 | 10 | 2 | 0 | -8 | 11 | i
Cc1ccc(S(=O)(=O)NN=C(c2ccccc2)c2cccs2)cc1 | 3 | . | 15 | . | -5 | -4 | . | .
